Screening results: PubChem, National Center for Advancing Translational Sciences (NCATS)
Rango-impB inh: Rango-importin beta binding inhibition | 340,000 tested, 0.031% active | AID 540263 | Rango CFP/YFP FRET sensor + importin beta, 45 min | Potency, µM (highest dose often 92.2 µM), without a hit: at the top dose inhibition of complex formation; active = rising FRET ratio curve, often small or poorly fitted; inconclusive = mostly compound fluorescence or quenching in the first reads; inactive = flat curves in all reads;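 also: potency is read from the fitted curve at half-maximal effect; 0% = DMSO wells and 100% = buffer wells lacking importin beta; nearly all actives have a fitted effect of over 15% in size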
Target sequence (Q14974 whole entry, looked up): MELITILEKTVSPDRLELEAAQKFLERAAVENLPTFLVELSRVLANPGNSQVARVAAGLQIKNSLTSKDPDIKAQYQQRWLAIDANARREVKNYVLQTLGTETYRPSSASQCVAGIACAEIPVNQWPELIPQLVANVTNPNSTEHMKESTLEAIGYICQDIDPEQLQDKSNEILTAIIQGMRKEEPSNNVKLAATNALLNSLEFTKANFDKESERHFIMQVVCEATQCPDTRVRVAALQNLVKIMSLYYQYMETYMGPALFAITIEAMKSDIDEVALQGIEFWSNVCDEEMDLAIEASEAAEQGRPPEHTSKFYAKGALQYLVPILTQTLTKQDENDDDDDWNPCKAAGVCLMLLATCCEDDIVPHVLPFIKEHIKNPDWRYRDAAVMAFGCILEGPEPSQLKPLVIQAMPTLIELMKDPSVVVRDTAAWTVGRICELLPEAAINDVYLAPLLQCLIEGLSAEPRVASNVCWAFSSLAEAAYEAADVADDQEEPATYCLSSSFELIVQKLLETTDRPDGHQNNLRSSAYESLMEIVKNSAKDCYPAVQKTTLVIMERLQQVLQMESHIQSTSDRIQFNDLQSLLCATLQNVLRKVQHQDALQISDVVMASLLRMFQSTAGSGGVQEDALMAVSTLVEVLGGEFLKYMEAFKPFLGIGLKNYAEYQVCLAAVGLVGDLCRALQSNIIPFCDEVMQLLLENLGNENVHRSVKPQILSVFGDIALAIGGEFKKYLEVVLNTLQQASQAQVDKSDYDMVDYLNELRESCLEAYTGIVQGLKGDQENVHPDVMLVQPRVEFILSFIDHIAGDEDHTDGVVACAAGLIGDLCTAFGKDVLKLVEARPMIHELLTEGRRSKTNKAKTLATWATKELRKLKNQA
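FRET biosensor (snurportin 1 IBB flanked by EYFP and cerulean), 50 nM, with compound 5 min, then 0.125 microM importin beta in PBS, 1 mM DTT, 0.02% Tween-20, 0.1% BSA. CFP/YFP ratio read after 45 min at room temperature; pre-read flags interference.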
miR-21 FLuc: raises the signal of a miR-21 reporter. HeLa miR-21 FLuc reporter, luciferase, 48 h. Potency, µM (titrated, usually from 38.3 µM), for inactives: at the highest dose reporter change, positive = more light. 340,000 tested, under 10 active; active = well fitted rising curve with a large enough effect; inconclusive = small, poorly fitted or top-dose-only effect; inactive = no such curve, though single readings can be large or run the other way;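 also: % of control where 0% means no effect; miR-21 action dims this reporter so a rising signal means less miR-21 action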
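HeLa cells stably expressing CMV-driven firefly luciferase with a downstream miR-21 binding sequence, endogenously expressing miR-21, were treated with titrations (up to about 40uM final) for 48 hours at 37 degree Celsius. Luciferase luminescence was read after lysis.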
Rango release inh: inhibition of RanGTP-driven Rango-importin beta dissociation. O95149+P62826. Biochemical FRET Rango-importin beta, RanGTP-induced dissociation. Potency, µM (doses to about 46.1 µM), inactives show top-dose activity change, negative = inhibition. 340,000 tested, 0.071% active. AID 540253; active means falling FRET ratio curve, often poorly fitted, with flat reads before Ran was added; inconclusive means other falling curves, or compound fluorescence or quenching; inactive means flat or rising ratio curve;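 also: potency is read from the fitted curve at half-maximal effect; % of control where 0% means no effect; nearly all actives have a fitted effect of over 45% in size; -100% = wells without RanGTP and RCC1; the record marks most hits as doubtful in a second field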
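Rango FRET biosensor (snurportin-1 IBB flanked by N-terminal EYFP and C-terminal CFP10) at 0.1 uM, with 0.25 uM importin beta in PBS, 1mM DTT, 0.02% Tween-20, 0.1% BSA. 0.6 uM Ran, 2mM GTP and 0.2 uM RCC1 were then added for 45 min at room temperature. Inhibition read as loss of FRET rise.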
GLA inh pH 4.5: alpha-galactosidase A (human) inhibition, pH 4.5; P06280; purified enzyme, 4-MU-alpha-Gal fluorescence, pH 4.5; 230,000 tested, under 10 active; activity change, negative = inhibition, % at 105 µM; inconclusive = small, poorly fitted or top-dose-only inhibition, or a rising curve; inactive = flat fitted curve, though single readings scatter; no compound was filed as active;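 also: 0% = full activity with enzyme and -100% = basal without enzyme; dose as in the result columns while the protocol names 77 µM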
Active calls of the source: *; ? = inconclusive; · = no result given; & = joins results of further samples. This is a subset; the hit share may differ from the screen's.

SMILES	Rango-impB inh	miR-21 FLuc	Rango release inh	GLA inh pH 4.5
Cc1c(C(=O)OC2CCCC2)[nH]c2c1C(=O)CC(c1ccco1)C2 (stereo not given)	-2.8%	14.4%	-7.3%	-17.5
COc1cc(CC(=O)OCC(=O)Nc2cccc([N+](=O)[O-])c2)cc(OC)c1OC	2.3%	-1.5%	-4.9%	3.1
Cn1c(Cc2cccs2)nnc1SCC(=O)Nc1ccc(F)cc1F	?	·	0.7%	·
COc1ccc(OC)c(C(C(=O)NC2CCCCC2)N(C(=O)c2ccccn2)c2cccnc2)c1 (stereo not given)	0.0%	0.5%	-9.5%	·
Cc1ccc(C(=O)Cn2c(C)cc(C)c(C#N)c2=O)cc1	0.0%	-4.9%	-7.5%	-1.2
CN(Cc1cnn(C)c1)C(=O)C1CCC(=O)N(Cc2ccc(Cl)cc2)C1 (stereo not given)	-0.2%	-0.9%	-0.2%	·
O=C(Nc1ccc(N2CCCC2)cc1)C(Cl)c1ccccc1 (stereo not given)	?	-33.8%	?	-1.3
CN(C)c1ccc(/C=C(\NC(=O)c2ccccc2)C(=O)N/N=C/c2ccc(C(=O)O)cc2)cc1	?	1.3%	?	·
Cn1c(CO)cnc1S(=O)(=O)Cc1ccc([N+](=O)[O-])cc1	4.0%	-0.4%	0.7%	-5.0
CCCCOC(=O)c1ccc(NC(=S)NC(=O)c2c(Br)c(C)nn2C)cc1	-0.9%	-4.1%	12.1%	-15.8

Reprinted from the part before: three compounds; new compounds follow.
SMILES	Rango-impB inh	miR-21 FLuc	Rango release inh	GLA inh pH 4.5
CN(C)c1ccc(/C=C(\NC(=O)c2ccccc2)C(=O)N/N=C/c2ccc(C(=O)O)cc2)cc1	?	1.3%	?	·
Cn1c(CO)cnc1S(=O)(=O)Cc1ccc([N+](=O)[O-])cc1	4.0%	-0.4%	0.7%	-5.0
CCCCOC(=O)c1ccc(NC(=S)NC(=O)c2c(Br)c(C)nn2C)cc1	-0.9%	-4.1%	12.1%	-15.8
C=CCNC(=O)COc1ccc(S(=O)(=O)NC2CCCCC2)cc1	-2.6%	-12.0%	-3.1%	3.7
Cc1ccc(CN2CC(=O)N3[C@H]4c5cc(Cl)ccc5OC[C@@H]4[C@H](c4ccccc4)[C@]3(C)C2=O)cc1	-3.1%	·	-2.1%	·
COc1ccc(NS(=O)(=O)c2cc(NC(=O)C3=NN(c4ccccc4)C(=O)CC3)ccc2OC)cc1	-4.9%	·	10.8%	·
CCOc1ccc(C(=O)Nc2ccc(NC(=O)c3ccccc3)c(C)c2)cc1[N+](=O)[O-]	-1.5%	-0.2%	-2.2%	·
COc1cc(O)c(C(CC(=O)N2CCCC(C)C2)c2cc(OC)c(OC)c(OC)c2)c(OC)c1 (stereo not given)	0.1%	11.8%	18.1%	-2.7
COc1cc(OC)c(OC)cc1/C=N/NC(=S)NCC1CCCO1 (stereo not given)	1.6%	-7.0%	-2.7%	0.0
CCc1cccc(NC(=O)CN(C)C2=NS(=O)(=O)c3ccccc32)c1	-0.3%	·	18.9%	·
CCn1c(SCC(=O)Nc2cc(NC(C)=O)ccc2OC)nnc1-c1cccnc1	-0.7%	0.4%	0.8%	-0.6
Cc1ccc(-n2ncc3c(SCc4ccccc4)ncnc32)cc1	1.0%	-63.1%	-2.9%	-2.5
Cc1ccc(-c2c(NCCc3ccccc3)c(=O)c2=O)cc1	4.0%	0.6%	14.0%	·
O=[N+]([O-])c1ccc(N2CCN(C(=S)c3cccc([N+](=O)[O-])c3)CC2)cc1	-3.4%	5.7%	-17.3%	-3.6
O=C(Nc1ncn[nH]1)c1ccc([N+](=O)[O-])cc1[N+](=O)[O-]	1.0%	2.3%	1.4%	-15.6
CNc1nc(-c2ccccc2)nc(-c2ccccc2)c1C#N	-2.6%	-1.0%	-1.1%	4.9
Nc1ccc(OCCCc2c(N)nc(N)nc2N)cc1	0.9%	-41.8%	-5.8%	-12.5
Cc1ccc(/C=N/NC(=O)c2nnn(-c3nonc3N)c2CSc2ccccc2)s1	0.5%	0.1%	-0.6%	·
Cc1ccc(NC(=O)c2cc(=O)[nH]c3ccc(S(=O)(=O)N4CCOCC4)cc23)cc1	-4.6%	·	16.6%	·
CC[C@]12c3[nH]c4ccc(OC)cc4c3CCN1C(=O)C(CC(=O)NCCN1CCOCC1)C[C@@H]2C(=O)N1CCN(C(=O)C2CC2)CC1 (stereo not given in full)	3.4%	·	23.9%	·
Cc1ccnc(SCC(=O)Nc2sc3c(c2C#N)CCCC3)n1	-0.1%	5.9%	-10.5%	1.9
CCOC(=O)CSc1nc(C)c2cc(OC)ccc2n1	-5.0%	-21.6%	-21.3%	26.5
O=c1oc2ccccc2c(Cl)c1CN1CCCCC1	1.0%	0.6%	16.5%	-2.1

Among those listed so far, these have a Cl atom:
SMILES	Rango-impB inh	miR-21 FLuc	Rango release inh	GLA inh pH 4.5
CN(Cc1cnn(C)c1)C(=O)C1CCC(=O)N(Cc2ccc(Cl)cc2)C1 (stereo not given)	-0.2%	-0.9%	-0.2%	·
O=C(Nc1ccc(N2CCCC2)cc1)C(Cl)c1ccccc1 (stereo not given)	?	-33.8%	?	-1.3
Cc1ccc(CN2CC(=O)N3[C@H]4c5cc(Cl)ccc5OC[C@@H]4[C@H](c4ccccc4)[C@]3(C)C2=O)cc1	-3.1%	·	-2.1%	·
O=c1oc2ccccc2c(Cl)c1CN1CCCCC1	1.0%	0.6%	16.5%	-2.1

The results go on.
SMILES	Rango-impB inh	miR-21 FLuc	Rango release inh	GLA inh pH 4.5
CCCCOc1ccc(/C(O)=C2/C(=O)C(=O)N(CCCOC)C2c2ccncc2)cc1C (stereo not given)	0.8%	-0.2%	-11.4%	-2.2
CC1CC(C)CN(C(=O)C(C)N2CCN(S(=O)(=O)c3ccc(C(F)(F)F)cc3)CC2)C1 (stereo not given)	-1.9%	·	1.6%	·
CC(C)(CNC(=S)NCCc1ccccc1)CNC(=S)NCCc1ccccc1	3.1%	25.7%	24.9%	-8.6
Cc1ccc(C(=O)O/N=C/C2=C(Cl)c3ccccc3CC2)cc1	4.1%	0.1%	-9.7%	-7.1
CCCCn1c(SCC(N)=O)nnc1-c1ccco1	1.4%	-3.8%	-1.3%	-5.5
NC(=O)[C@@H]1CC2(CC(c3cccc(NC(=O)COc4ccc(Cl)cc4)c3)=NO2)CN1C(=O)COc1ccc(Cl)cc1 (stereo not given in full)	-3.4%	?	1.4%	-7.8
Cc1cccc(NC(=O)Cn2cnc3c(oc4ccccc43)c2=O)c1	-0.3%	-2.3%	-12.4%	-8.4
Cc1noc(C)c1NC(=O)Nc1cccc2c1O[C@H](CN(C)S(=O)(=O)c1ccc(F)cc1)[C@@H](C)CN([C@H](C)CO)C2=O	-0.6%	·	8.8%	·
CC(C)CNC(=O)c1ccc(Cl)c(Cl)c1	0.3%	-14.7%	7.8%	0.8
CCOC(=O)c1[nH]c(C)c(C(=O)Nc2ccc3c(c2)OCCO3)c1C	3.5%	-34.9%	27.3%	-2.4
C[C@H](Nc1ncnc2sc3c(c12)CCC3)C(=O)O	-0.1%	-1.8%	-18.0%	-21.5
O=C(CNC1CC1)Nc1cc(C(F)(F)F)ccc1Cl	-1.4%	-6.1%	13.2%	-10.5
CCOC(=O)N1CCC(N(CCOC)C(=O)Nc2ccc(CC)cc2)CC1	-0.8%	-7.7%	-19.0%	-3.0
N#CCC(=O)Nc1ccc(C(=O)NNC(=S)NC2CC2)cc1	0.8%	·	-17.6%	·
O=C(COC(=O)Cc1ccc(S(=O)(=O)N2CCOCC2)s1)Nc1ccccc1Cl	?	·	-5.4%	·
Cc1ccc(-n2c(C)nc3c(cnn3-c3ccc(F)cc3)c2=O)cc1	2.1%	-5.5%	-1.1%	-3.5
CN(C)/C=C(\C(=O)c1ccccc1)c1nnnn1-c1ccc(F)cc1	-2.8%	-0.9%	-6.4%	-1.5
COC1OC(COC(=O)CNC(=O)OC(C)(C)C)C(O)C(O)C1O (stereo not given)	2.0%	-2.5%	-3.2%	10.5
COC(=O)c1ccccc1NC(=O)c1noc2c1CCCC2	-5.6%	-38.3%	4.9%	-7.2
Cc1ccc(S(=O)(=O)N(CC(=O)N2CCc3ccccc3C2)c2ccc(Cl)c(Cl)c2)cc1	0.0%	7.9%	13.6%	-3.6

Profiles, looked up by structure. Screens in order: Rango-impB inh | miR-21 FLuc | Rango release inh | GLA inh pH 4.5
Profile of `Cc1ccc(-n2c(C)nc3c(cnn3-c3ccc(F)cc3)c2=O)cc1` → 2.1% | -5.5% | -1.1% | -3.5
Profile of `CCOC(=O)N1CCC(N(CCOC)C(=O)Nc2ccc(CC)cc2)CC1` → -0.8% | -7.7% | -19.0% | -3.0
Profile of `N#CCC(=O)Nc1ccc(C(=O)NNC(=S)NC2CC2)cc1` → 0.8% | · | -17.6% | ·
Profile of `Cc1ccc(S(=O)(=O)N(CC(=O)N2CCc3ccccc3C2)c2ccc(Cl)c(Cl)c2)cc1` → 0.0% | 7.9% | 13.6% | -3.6

Other entries.
SMILES	Rango-impB inh	miR-21 FLuc	Rango release inh	GLA inh pH 4.5
Cc1ccc(S(=O)(=O)Oc2ccccc2[N+](=O)[O-])cc1	0.3%	·	-10.3%	·
C#CC[N+]1(CC#Cc2cccc(C)c2)CCCCC1	4.3%	10.1%	-8.7%	-6.4
COCCCn1cnc2c(c1=O)c1nc3ccccc3nc1n2-c1ccccc1	?	-6.1%	-10.4%	5.1
Cc1ccc(CNC(=O)C(=O)NCC2OCCN2S(=O)(=O)c2ccc(Cl)cc2)cc1 (stereo not given)	-2.4%	·	-17.8%	·
CCC1CCCCN1CCCNC(=O)CN1C(=O)CSc2ccc(S(=O)(=O)N3CCC(C)CC3)cc21 (stereo not given)	-0.2%	-5.2%&3.1%	2.8%	·
CC1CCc2nc(/C(C#N)=C/c3cccnc3)sc2C1 (stereo not given)	?	-19.6%	?	-6.7
O=C(CN1C(=O)COc2ccc(S(=O)(=O)N3CCCCC3)cc21)NCc1ccccc1Cl	0.4%	-0.5%&6.2%	8.8%	·
CCCCCn1c(=O)[nH]c2cc(C(=O)NCCc3ccc(OC)c(OC)c3)ccc2c1=O	0.1%	-1.2%	-2.1%	-4.0
CC1(C)N=C(c2ccc(Cl)cc2Cl)C(=O)N1	-3.9%	-3.9%	2.1%	-1.3
O=C(COC(=O)c1ccccc1Cc1ccccc1)NC1CCS(=O)(=O)C1 (stereo not given)	2.2%	-5.5%	7.8%	·
COc1ccc(NC2CCCN(C(=O)CN3CCOC3=O)C2)cc1 (stereo not given)	6.9%	-43.6%	-0.5%	·
NS(=O)(=O)c1ccc(NC(=O)CSc2nc3c(cnn3-c3ccccn3)c(=O)[nH]2)cc1	0.5%	·	-5.4%	·
CCN(CC)C(=O)C1CCCN(C/C=C/c2ccccc2[N+](=O)[O-])C1 (stereo not given)	2.7%	-1.2%	13.0%	·
COc1ccc2cc(CCl)c(Cl)nc2c1	-0.6%	-8.4%	-7.2%	0.9
CC(=O)NC(c1ccco1)c1ccc2cccnc2c1O (stereo not given)	5.2%	?	11.8%	-3.0
Cc1ccc(NC(=O)CN2C(=O)N/C(=C/c3cccn3-c3ccc(C(=O)O)cc3)C2=O)cc1	?	-6.6%	-16.0%	-1.1
COC(=O)c1sc(N)c(C(=O)OC)c1COC(=O)CCNS(=O)(=O)c1ccc(C)cc1	-1.1%	8.5%	-6.2%	1.7
CN(C)CCOc1ncnc2c1oc1ccccc12	-1.1%	-3.9%	0.2%	5.6
Cc1csc(NC(=O)CSc2nncc(=O)n2N)n1	-0.1%	-5.3%	9.3%	-2.0
Cc1nc2c(oc3ccccc32)c(=O)o1	3.3%	-51.0%	-2.8%	-19.4
CCn1c(CN2c3ccccc3Sc3ccccc32)n[nH]c1=S	0.9%	-9.3%	0.1%	2.0
